# Screens deposited in PubChem by several laboratories.
# Insulin prom inh = TRM-6 insulin promoter activity inhibition; AID 1273; inhibition, % at 2 µM; actives 0.9% (n = 130,000); TRM-6 cells (human fetal islet line), insulin promoter-eGFP reporter, imaging; reporter expression induced with tamoxifen;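 active = inhibition above the mean plus 3 SD, with well images judged a real hit on visual review, cut at about 60% in these data, passing the limit was not always enough; inconclusive = inhibition over the cutoff but images rejected on review; inactive = inhibition not above the cutoff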
# HSV augment = increases HSV replication in cells; maximum fold increase; HSV replication augmentation in cells, fold increase; actives 0.005% (n = 220,000); AID 1956;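 active = peak rise of 1.5-fold or more in the series; inconclusive = self-fluorescent or not available for retest; tested in PC3 cells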;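 note: first round at 10 µM; read as green reporter fluorescence; hits show the peak of a series up to 25 µM; 1 = signal of infected wells without compound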
# RGS16-Gao HTS = RGS16-Galphao interaction regulator (human); O15492+P09471; bead-based flow cytometry RGS16-Galphao binding, fluorescence; actives lie on both sides; binding response (% of control), % at 10 µM; actives 0.38% (n = 220,000); AID 1441;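 active = below 25% or above 175%, edge rows of some plates excepted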;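 note: Galphao activated by GDP with aluminum fluoride before binding; 100% = wells without compound and 0% = beads without RGS; some results beyond the cut were filed as inactive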
# GALR2 agonist = activates the human galanin receptor 2 | activation, %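 (tested at 5 µM)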 | GALR2-expressing cells, agonist activation read-out | actives 0.48% (n = 140,000);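 active = above mean plus 3 SD of all compounds, about 5% in these data, not always enough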;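 note: 0% = vehicle buffer wells and 100% = reference agonist at full effect; tested in CHO reporter cells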
# PKD1 inh = blocks activity of human protein kinase D1; Q15139; PKD1 kinase fluorescence polarization assay; inhibition, %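 (about 10 µM by stock and volumes)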; actives 0.056% (n = 200,000);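 active = inhibition of 50% or more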;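 note: controls were vehicle for no effect and a reference inhibitor for full effect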
# Target sequence (Q15139 whole entry, looked up): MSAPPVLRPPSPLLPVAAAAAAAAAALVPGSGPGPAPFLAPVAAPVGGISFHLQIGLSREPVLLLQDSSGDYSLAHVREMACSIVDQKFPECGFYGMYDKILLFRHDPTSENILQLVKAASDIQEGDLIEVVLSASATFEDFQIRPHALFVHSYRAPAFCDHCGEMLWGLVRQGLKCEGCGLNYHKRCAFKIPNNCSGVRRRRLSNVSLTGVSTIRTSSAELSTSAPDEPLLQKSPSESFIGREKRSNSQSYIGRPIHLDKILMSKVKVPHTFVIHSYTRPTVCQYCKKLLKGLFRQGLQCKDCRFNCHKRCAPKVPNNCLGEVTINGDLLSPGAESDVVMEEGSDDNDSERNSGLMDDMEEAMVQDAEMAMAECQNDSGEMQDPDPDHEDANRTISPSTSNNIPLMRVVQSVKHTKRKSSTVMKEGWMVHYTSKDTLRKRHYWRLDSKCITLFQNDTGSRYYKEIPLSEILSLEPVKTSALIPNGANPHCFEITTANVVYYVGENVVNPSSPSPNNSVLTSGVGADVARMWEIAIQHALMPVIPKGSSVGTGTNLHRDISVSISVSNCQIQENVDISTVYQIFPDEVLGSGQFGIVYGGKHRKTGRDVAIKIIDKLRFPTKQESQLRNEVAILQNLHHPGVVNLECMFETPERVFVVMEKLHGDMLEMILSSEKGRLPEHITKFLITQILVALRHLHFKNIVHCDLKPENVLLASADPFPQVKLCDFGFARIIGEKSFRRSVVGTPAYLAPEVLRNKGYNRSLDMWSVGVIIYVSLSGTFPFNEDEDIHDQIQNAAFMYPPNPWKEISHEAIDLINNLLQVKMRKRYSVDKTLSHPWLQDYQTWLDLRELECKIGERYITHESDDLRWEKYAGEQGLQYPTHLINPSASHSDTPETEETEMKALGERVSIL
# Insulin prom inh cell count = further read-out of Insulin prom inh, marked with its call; normalized cell count, %; measured here: cell count, toxicity; reference of the scale not given here;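 cells exposed to compound for 48 h; stained nuclei by imaging scaled within each plate; lower means fewer cells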
# HSV augment primary fold = second read-out of HSV augment, no call of its own (marks repeat the call); fold increase; compound at 10 µM; measured here: primary screen fold increase 10 uM; tested in PC3 cells;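 GFP signal in the first replicate; 1 = infected wells without compound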
# The depositor's hits bear a star; i = inactive; ? = inconclusive; . = not tested or not shown.
Molecule	Insulin prom inh	Insulin prom inh cell count	HSV augment	HSV augment primary fold	RGS16-Gao HTS	GALR2 agonist	PKD1 inh
O=C(N/N=C\c1ccc(-c2ccccc2[N+](=O)[O-])o1)C1COc2ccccc2O1 (stereo not given)	.	.	i	1.2	97	-0.2	-7
Cn1c(CNc2ccccc2O)nc2ccccc21	.	.	i	0.92	100	-0.6	3
CCOC(=O)C1CCN(S(=O)(=O)c2cnc[nH]2)CC1	.	.	i	1.1	103	-2.1	-9
CN(C)CCCn1c(SCCN2C(=O)c3ccccc3C2=O)nc2ccccc2c1=O	.	.	i	1.1	102	.	9
COc1ccccc1C(=O)Nc1nnc(C)s1	-17	100	i	1	101	-0.1	1
CC(C)c1nnc(NC(=O)CS(=O)(=O)Cc2ccccc2)s1	.	.	i	1.1	97	.	-5
Nc1c(NCCCN2CCOCC2)c2ccccc2oc1=O	45	94	i	1.1	99	-3.0	3
CCCN(CCC)CCCNC(=O)C(NS(=O)(=O)c1ccc2c(c1)CCC(=O)N2)c1ccccc1 (stereo not given)	-43	119	i	0.97	100	.	1
Cc1nc2ccccc2c2c1C(=O)N(C1CCCCCCC1)C2=O	-17	172	i	1	113	-0.9	3
COCCCNC(=O)CS(=O)Cc1nc(-c2ccccc2C)oc1C (stereo not given)	.	.	i	1	102	-2.5	-6
Cc1ccnc(NC(=O)C2COc3ccccc3O2)c1 (stereo not given)	3	77	i	1.1	147	-1.4	12
Nn1c(SCC(=O)Nc2ccc3c(c2)OCO3)nnc1C1CCCCC1	25	136	.	.	99	-1.1	0
Cn1c(=O)n(C)c2cc(CNc3ccc(N4CCOCC4)c(C(=O)O)c3)ccc21	-3	54	i	0.91	118	-0.2	-9
O=C(/C=C1\NCC2c3ccccc3CCN2C1=O)c1ccccc1 (stereo not given)	.	.	i	0.92	102	-2.4	-12
Cc1cc(C)n2nc(SCC(=O)Nc3ccc(F)cc3)nc2n1	.	.	i	0.98	96	-2.0	-12
COc1ccc(C2CN=NC2C(=O)c2ccccc2)cc1 (stereo not given)	.	.	i	0.89	100	.	.
O=C(Nc1nc2cc3c(cc2s1)OCCO3)c1ccc(N2C(=O)CCC2=O)cc1	.	.	i	1.1	99	.	.
CCCCOC(=O)CSc1n[nH]c(=O)[nH]c1=O	79*	80*	i	0.9	104	-1.4	-1
Clc1ccc(-c2cnc3ccccc3n2)cc1	0	66	i	0.98	102	-1.7	8
Nc1nc(NC(=O)/C=C\C(=O)O)nn1-c1ccccc1	33	92	i	1	102	.	-3
CNC(=O)/C(C#N)=C/c1ccc(-c2ccc(Cl)cc2)o1	41	218	i	1.1	101	.	1
N#Cc1ccc(/C=C(\C(=O)C(=O)O)c2ccc3ccccc3n2)cc1	.	.	?	.	104	.	.
CCOc1ccc(C2C(C#N)=C(N)N(c3sc4c(c3C#N)CCCC4)C3=C2C(=O)CCC3)cc1 (stereo not given)	.	.	i	1.2	121	0.3	7
Cc1cccc(NC(=O)CSc2nnc(-c3cnccn3)n2Cc2ccco2)c1	-43	249	i	0.74	88	-1.9	-10
CSc1nc(N)c(C#N)c(-c2ccc(Cl)cc2)c1C#N	.	.	i	0.72	96	-2.7	-5
C/C(=N\NC(=O)C1COc2ccccc2O1)c1ccc(C)o1 (stereo not given)	22	74	i	0.77	103	-0.5	4
CCOC(=O)C(C(=O)N(C)C)c1ncc(C(F)(F)F)cc1Cl (stereo not given)	3	126	i	1	97	-1.8	5
NC(=O)C1=C[C@H](c2csc3ccccc23)C[C@H](OCCCCO)O1	.	.	i	1	84	.	1
CCOc1ccccc1NC(=S)NCc1ccco1	-21	108	i	0.84	71	-2.0	-6
Cc1cc(NC(=O)CSc2nc3sc(C)c(C)c3c(=O)n2C2CCCC2)no1	-21	105	i	0.87	104	-0.2	-1
O=C(CCn1nnc2ccccc21)N1CCC(O)(c2cccc(F)c2)CC1	-30	109	i	1	105	-1.0	-1
Cc1ccc(S(=O)(=O)N2CCOCC2)cc1C(=O)Nc1ccccn1	-26	73	i	1	107	-1.5	-6
O=C(Cn1c(C(=O)NCc2ccco2)cc2sccc21)c1ccccc1	.	.	.	.	83	-1.0	8
COc1cccc(-c2n[nH]c(=S)n2Cc2ccco2)c1OC	-294	66	i	0.94	93	-2.6	3
C=CCN1C(=O)CN=C1Nc1ccccc1	5	147	i	0.91	99	-1.9	-8
Cn1c(=O)c2c(-c3ccccc3)n(N3CCOCC3)cc2n(C)c1=O	.	.	i	1	106	1.9	-9
O=C(OC1CCN(c2ccc([N+](=O)[O-])cc2)CC1)c1ccccc1	.	.	i	0.8	98	-1.0	-8
Cc1ccc(C)c(N(CC(=O)Nc2cc(Cl)ccc2Oc2ccccc2)S(C)(=O)=O)c1	-18	136	i	0.95	100	-2.7	4
CCC1(C)Cc2c(sc3nc(NC)n(C)c(=O)c23)CO1 (stereo not given)	0	69	.	.	98	-0.6	-3
O=C(/C=C/c1ccc(Cl)cc1)N(Cc1ccccc1)c1ccccn1	.	.	i	0.85	104	.	-2
O=C(NNC(=O)c1cccs1)c1ccc(Cl)c(Cl)c1	35	165	i	0.96	108	0.3	3
CCn1cc(C(=O)NCc2ccncc2)c(=O)c2cc(F)c(N3CCN(C(=O)c4ccco4)CC3)cc21	.	.	i	1	81	.	.
COC(=O)c1[nH]c2ccccc2c1NC(=O)/C=C/c1ccc2c(c1)OCO2	.	.	i	0.8	101	-0.2	-4
CC(=O)N1CCc2cc(N=NC3=C(O)CC(C)(C)CC3=O)ccc21	.	.	i	1.1	100	.	-1
C=CCn1c(SCC(=O)Nc2ccc3c(c2)OCO3)nnc1-c1ccccc1O	-14	107	i	1.2	100	-0.8	-5
Cn1c(=O)c2c(nc(SCCCC#N)n2Cc2ccccc2F)n(C)c1=O	.	.	i	1.1	87	0.1	-9
CCOC(=O)N1CCN(C(=O)c2oc3ccc(S(=O)(=O)N4CC(C)CC(C)C4)cc3c2C)CC1 (stereo not given)	32	66	i	1.1	94	-1.1	-4
COC(=O)C(C)C1Sc2ccccc2NC1=O (stereo not given)	-99	97	i	0.89	107	-0.5	-6
CNC(=O)CS(=O)(=O)CC(=O)Nc1cc(OC(C)C)c(Cl)cc1Cl	.	.	i	0.93	100	.	4
Cc1ccc(-c2c(C(=O)O)c(C(=O)O)c3n2CCC3)cc1	-23	63	.	.	100	.	-9

# Record cards, as listed above.
# CCOC(=O)N1CCN(C(=O)c2oc3ccc(S(=O)(=O)N4CC(C)CC(C)C4)cc3c2C)CC1 (stereo not given) is listed as Insulin prom inh: 32; Insulin prom inh cell count: 66; HSV augment: i; HSV augment primary fold: 1.1; RGS16-Gao HTS: 94; GALR2 agonist: -1.1; PKD1 inh: -4
# O=C(NNC(=O)c1cccs1)c1ccc(Cl)c(Cl)c1 is listed as Insulin prom inh: 35; Insulin prom inh cell count: 165; HSV augment: i; HSV augment primary fold: 0.96; RGS16-Gao HTS: 108; GALR2 agonist: 0.3; PKD1 inh: 3

# Following part:
Molecule	Insulin prom inh	Insulin prom inh cell count	HSV augment	HSV augment primary fold	RGS16-Gao HTS	GALR2 agonist	PKD1 inh
COc1ccccc1OC(C)c1nnc(SCC(=O)Nc2c(C)n(C)n(-c3ccccc3)c2=O)n1-c1ccccc1 (stereo not given)	-2	104	i	1.1	104	-1.8	1
CCN(CC)S(=O)(=O)c1cccc(NC(=O)CSc2nc3ccccc3[nH]2)c1	.	.	i	1.1	100	.	-2
COc1ccc(NC(=O)N/C=C/c2ccco2)cc1	-38	97	i	1.1	95	.	-2
COc1cc2c(cc1OC)CN(C(=O)Cc1ccc(OC)c(S(=O)(=O)N3CCOCC3)c1)CC2	.	.	i	0.99	99	-0.3	-7
CC(C)(C)c1ccc(NC(=O)Cn2cnc3cc([N+](=O)[O-])ccc3c2=O)cc1	.	.	i	0.89	97	.	-11
COc1ccc2c(C)nc(Nc3nc(C)cc(=O)[nH]3)nc2c1	25	74	.	.	.	-0.1	-8
CCc1nc(N2CCN(C(=O)c3ccccc3)CC2)c(C#N)c2c1COC(C)(C)C2	.	.	i	0.96	128	-1.1	-6
CS(=O)(=O)N(CC(=O)N1CCOCC1)Cc1ccc(Cl)cc1	-90	102	i	0.78	99	-2.4	-9
CCOC(=O)N1CCN(C(=S)NC2CCCC2)CC1	.	.	i	1.1	95	.	7
COC(=O)c1ccc(NC(=O)c2cnc3scc(C)n3c2=O)cc1	.	.	.	.	93	.	-4
c1ccc2c(c1)Cn1nc(Cc3nc4c(s3)CCCC4)nc1-2	.	.	i	0.99	98	-1.1	7
Cc1ccc(N(CC(=O)N=Nc2c(O)[nH]c3ccccc23)S(C)(=O)=O)c(C)c1	.	.	i	1	97	.	4
O=C(CC(c1ccccc1)c1ccccc1)Nc1ccc(Cl)cn1	26	107	i	0.82	91	-1.3	-14
Cc1ccc(S(=O)(=O)N(C(=O)c2ccncc2)c2ccc(OC(=O)c3ccncc3)cc2)c(C)c1	-14	120	i	0.79	113	0.4	2
Cc1ccc(-c2nnn(CC(=O)N(Cc3ccccc3F)C(C(=O)NC3CCCC3)c3ccncc3)n2)o1 (stereo not given)	-231	153	i	0.93	115	-1.3	-6
c1ccc2[nH]c3cc4ncnc4cc3nc2c1	-71	152	i	1.2	101	0.7	5
CCc1cc(C(=O)N2CCCC(C(=O)c3cccc(OC(C)C)c3)C2)n(C)n1 (stereo not given)	.	.	i	0.92	103	.	-9
O=C(c1ccc(-c2ccccc2)cc1)C1CCCN(C(=O)c2ccncc2)C1 (stereo not given)	20	99	i	0.88	97	.	-7
O=S(=O)(c1cccs1)n1cnc2ccccc21	6	182	i	1	114	-0.2	-8
CC(C)c1nnc(NC(=O)CCC(=O)NC2CCCCC2)s1	.	.	i	0.99	100	.	.
Cc1ccc(NC(=O)NC(=O)CSc2nnnn2C)c(C)c1	.	.	i	1.1	96	-1.8	-9
COC(=O)CC1C(=O)NCCN1C(=O)CSc1nc2ccccc2c(=O)n1CC(C)C (stereo not given)	.	.	i	1	100	.	-6
O=C(NCCc1ccccn1)C(F)(F)C(F)(F)C(F)(F)C(F)(F)C(F)(F)C(F)F	.	.	i	1.1	73	-0.9	-10
COc1cccc(C2=CC(c3ccccc3)n3nnnc3N2)c1 (stereo not given)	.	.	.	.	104	0.5	11
O=C(NCc1ccccc1)C1=C[C@@H](C2CC2)C[C@@H](OCCCCO)O1	.	.	.	.	106	.	1
CC(C)OP(=O)(c1ccc(N(C)C)cc1)C(O)c1c(Cl)cccc1Cl (stereo not given)	.	.	i	1	109	0.1	-6
O=C(O)c1cc(Cl)c2c(c1)OCO2	.	.	i	0.83	101	.	.
COc1ccc(CCNC(=O)CN2C(=O)NC(C)(c3ccc([N+](=O)[O-])cc3)C2=O)cc1 (stereo not given)	.	.	i	0.91	102	.	-3
CC1CCCCN1CC(=O)NC(=O)NCc1ccccc1 (stereo not given)	15	105	i	0.94	103	0.6	-9
Nc1ccccc1C(=O)NCCN1CCNC1=O	.	.	i	0.94	95	.	.
CC(=O)c1c(C)nn(CC(O)Cn2c3c(c4cc(C)ccc42)CCCC3=O)c1C (stereo not given)	-54	118	i	0.83	102	-0.5	-14
COc1ccc(N2CCN(c3nc(Nc4ccc(F)cc4)nc(OC)n3)CC2)cc1	3	120	i	0.91	102	-1.9	-1
O=C(CN(c1ccccc1)S(=O)(=O)c1ccccc1)Nc1ccccc1C(=O)NCc1ccco1	-31	104	i	0.95	102	-1.7	1
Cc1ccc(NC2=C(Cl)C(=O)OC2OC(=O)c2ccccc2)c(C)c1 (stereo not given)	0	112	i	0.91	108	.	-4
Cc1ccc(OCC(O)CN2CCN(CC(O)COc3ccc(C)cc3)CC2)cc1 (stereo not given)	.	.	i	1.1	98	-1.5	4
COc1ccc(C2(O)CCN(C(=O)Cc3cccnc3)CC2)cc1	15	93	i	0.97	199	-0.7	-3
NS(=O)(=O)c1ccc(CCNC(=O)c2ccc(Cl)cc2[N+](=O)[O-])cc1	.	.	i	0.98	101	.	-4
CC1CN(C(=S)SCC(=O)c2ccccc2)CC(C)O1 (stereo not given)	-9	88	i	0.89	100	-1.3	1
